TRPML1 blocker: qHTS for Inhibitors of the Human Mucolipin Transient Receptor Potential 1 (TRPML1). 390,000 compounds, 0.02% hits. activity change, negative = inhibition, % (no concentration beside the values). Mucolipin-1 (Homo sapiens), Q9GZU1. TRPML1-inducible cells, Ca2+ dye fluorescence, FDSS; active compounds read low; inhibition of EC80 agonist-evoked calcium signal; in the data active means activity change below about -50%; inconclusive means about -30% to -50%; inactive means above about -30%;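 also: stimulus is agonist 54-4 at its EC80 concentration; % is scaled to controls: 0 for no effect and ±100 for the full control effect; compound concentration not given in the record; the text of the record puts the active cut at -80%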
Target sequence (Q9GZU1 whole entry, looked up): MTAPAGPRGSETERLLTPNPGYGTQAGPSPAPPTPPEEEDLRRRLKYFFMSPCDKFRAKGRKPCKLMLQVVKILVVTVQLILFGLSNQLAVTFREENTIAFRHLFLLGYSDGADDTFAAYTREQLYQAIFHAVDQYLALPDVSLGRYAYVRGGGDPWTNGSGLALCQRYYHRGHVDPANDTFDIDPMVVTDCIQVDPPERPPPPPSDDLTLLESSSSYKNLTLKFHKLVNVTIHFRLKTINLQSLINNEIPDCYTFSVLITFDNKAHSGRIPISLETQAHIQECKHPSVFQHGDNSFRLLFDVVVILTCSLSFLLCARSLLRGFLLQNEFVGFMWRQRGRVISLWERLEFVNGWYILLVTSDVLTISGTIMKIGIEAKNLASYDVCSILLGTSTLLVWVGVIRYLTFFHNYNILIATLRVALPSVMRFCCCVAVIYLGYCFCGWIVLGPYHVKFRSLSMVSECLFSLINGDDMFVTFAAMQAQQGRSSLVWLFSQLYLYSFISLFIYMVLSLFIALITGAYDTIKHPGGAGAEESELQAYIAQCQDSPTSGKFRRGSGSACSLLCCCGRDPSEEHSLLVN
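Tet-induced TRPML1-DL cells loaded with Ca8 no-wash calcium dye were read kinetically on FDSS. Compound addition was followed by EC80 agonist 54-4 (4 uM final); inhibition was read over 110 s.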
gsp antag: qHTS for Antagonists of gsp, the Etiologic Mutation Responsible for Fibrous Dysplasia/McCune-Albright Syndrome: qHTS; gsp-mutant cells, cAMP HTRF, 30 min; control for the full effect not named in the record; Potency, µM (series often up to 76.9 µM), inactives show top-dose activity change, negative = inhibition, hits mostly inhibitors; 340,000 compounds, 0.4% hits; active = falling curve of any shape with a large fitted effect; inconclusive = falling curve, mostly with a smaller effect; inactive = flat or rising curve; cell line not stated here;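 also: intracellular cAMP measured with PDE inhibitor Ro 20-1724 present during compound exposure; potency is read from the fitted curve at half-maximal effect; % is scaled to controls: 0 for no effect and ±100 for the full control effect; nearly all actives have a fitted effect of over 65% in size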
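Measurement of cellular cAMP by homogeneous time-resolved fluorescence following a 30 min compound exposure at 37C. The PDE inhibitor […] was present throughout; the assay buffer was DPBS with 0.05% BSA and 0.005% Tween 20.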
ClpP mod: qHTS Assay for Activators of ClpP; 340,000 compounds, 1.9% hits; ATP-dependent Clp protease proteolytic subunit (Bacillus subtilis (strain 168)), P80244; AID 651965, 2013; Potency, µM (titrated, usually from 57.5 µM), without a hit: at the top dose activity change, negative = active; purified B. subtilis ClpP, FRET peptide cleavage, 20 min; active = well fitted falling curve with a large enough effect; inconclusive = small, poorly fitted or top-dose-only effect; inactive = no such curve, though single readings can be large or run the other way; also: potency is read from the fitted curve at half-maximal effect; the source files actives as falling curves though it sought activators and does not explain the sign; nearly all actives have a fitted effect of over 65% in size; many hits overshoot -100%
Target sequence (P80244 whole entry, looked up): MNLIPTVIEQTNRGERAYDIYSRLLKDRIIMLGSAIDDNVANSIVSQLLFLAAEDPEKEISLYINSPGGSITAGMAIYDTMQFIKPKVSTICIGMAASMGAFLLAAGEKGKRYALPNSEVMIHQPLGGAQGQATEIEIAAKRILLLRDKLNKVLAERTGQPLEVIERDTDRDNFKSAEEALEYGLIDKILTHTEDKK
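FRET quenching reversal measured ClpP activation: 10 microg/mL B. subtilis ClpP at pH 8 with the FRET-FV decapeptide, read at 430 nm after 320 nm excitation. The 20-min minus 0-min signal was scaled between DMSO/no-enzyme wells and ADEP (5.8 microM final).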
TRPML1 agonist: qHTS for Agonists of the Human Mucolipin Transient Receptor Potential 1 (TRPML1) | AID 624414, 2012 | TRPML1-expressing cells, Ca2+ dye fluorescence, FDSS; host cell line not named in the record; reference of the full effect not given here | 410,000 compounds, 0.12% hits | activation, % (concentration not given with the values); in the data active = activation above about 50%; inconclusive = about 30% to 50%; inactive = below about 30%; also: 0% is about no effect; the text of the record puts the active cut at 80%
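In this qHTS format, compounds were pin-transferred onto Ca8-dye-loaded TRPML1-DL cells induced with Tet overnight, and intracellular Ca2+ fluorescence was recorded kinetically for 110 s after a 10 s baseline. A subsequent 4uM final 54-4 (EC80) addition followed by a second 110 s read served as the antagonist phase.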
gsp agonist: qHTS for Agonist of gsp, the Etiologic Mutation Responsible for Fibrous Dysplasia/McCune-Albright Syndrome: qHTS; gsp mutant cells, cAMP HTRF, 30 min; control for the full effect not named in the record; Potency, µM (doses to about 76.9 µM), for inactives: at the top dose activation (cAMP increase), hits mostly activators; 340,000 compounds, 0.13% hits; active = well fitted activation curve with a large enough effect; inconclusive = small, poorly fitted or top-dose-only effect, or another doubt; inactive = no such curve, though single readings can be large or run the other way; cell line not stated here;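 also: phosphodiesterase inhibitor Ro 20-1724 added with compounds to block cAMP breakdown; potency is read from the fitted curve at half-maximal effect; nearly all actives have a fitted effect of over 60% in size; about a fifth of the inactives were tested at one dose only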
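Cells stably selected in G418 were plated at 2000/well, grown 16-24 hr, then given compounds in DMSO with the PDE inhibitor […] (300 uM solution added) for 30 min at 37C; cAMP was read by HTRF.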
Menin MLL FP FL: qHTS Assay for Inhibitors Targeting the Menin-MLL Interaction in MLL Related Leukemias: Competition With Fluorescein Labeled MLL-derived Peptide | AID 1766, 2009 | Fluorescence polarization, fluorescein-MLL peptide displacement from menin | FP activity change, % at 61.4 µM | 290,000 tested, under 10 active; inconclusive = falling polarisation curve, or a change in total fluorescence; inactive = total fluorescence flat and polarisation flat or rising; no compound was filed as active; the % refers to the polarisation; negative = inhibition;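 also: % of control where 0% means no effect; inhibitors lower the polarisation; unlabelled MLL peptide was the positive control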
Numbers without * were called inactive; ? = inconclusive; nt = not tested or not shown; & = joins results of further samples; [ ] = dose if it differs, or a comment. No enrichment for hits; about 2.1% have a hit in one of these screens.

SMILES | TRPML1 blocker | gsp antag | ClpP mod | TRPML1 agonist | gsp agonist | Menin MLL FP FL
CC(Oc1ccc(Cl)cc1)C(=O)Nc1ccc(S(=O)(=O)N2CCOCC2)cc1 (centres undefined) | 4 | -4% | nt | 12 | 3%[15.4 µM] | -3.0
CC1(C)Cc2c(sc3nc4n(c(=O)c23)CCC4)CO1 | 1 | 4% | -5.7% | -0.9 | 12% | -0.3
Cc1ccc(C)c(NC(=O)CCN2CCCC(C)C2)c1 (centres undefined) | nt | 10% | 1.8% | nt | 0% | -1.6
CC(OC(=O)CSc1ccc([N+](=O)[O-])cc1)C(=O)NCc1ccco1 (centres undefined) | -6 | -4% | -0.6% | -0.3 | 6% | nt
Cc1ccccc1CN(c1ccc(C(=O)NCc2ccccn2)cc1)S(C)(=O)=O | 7 | -1% | 1.5% | -0.6 | ? | 0.2
Cc1noc(C)c1C(=O)Nc1ccc(N(C)C)cc1 | 2 | -8% | 1.7% | -0.7 | 0% | nt
CN1CCN(Cc2cc(=O)oc3ccc(Cl)cc23)CC1 | 22 | 13% | -3.2% | -0.3 | -13% | 5.3
COc1cc(/C=N/NC(=O)c2cccc3ccccc23)cc(OC)c1O | -7 | 7% | -4.0% | -0.6 | ? | -2.8
CCCn1c(=O)[nH]c(=O)c2c1nc(-c1ccc3c(c1)OCCO3)n2CCN1CCOCC1 | 16 | -4% | 32µM* | -0.1 | 0% | 0.7
O=C(NCC(=O)N1CCN(Cc2ccccc2)CC1)c1ccc(Cl)cc1 | 10 | 3% | -3.0% | 0.9 | 10% | 0.7

The list goes on, overlapping the part above by two compounds.
SMILES | TRPML1 blocker | gsp antag | ClpP mod | TRPML1 agonist | gsp agonist | Menin MLL FP FL
CCCn1c(=O)[nH]c(=O)c2c1nc(-c1ccc3c(c1)OCCO3)n2CCN1CCOCC1 | 16 | -4% | 32µM* | -0.1 | 0% | 0.7
O=C(NCC(=O)N1CCN(Cc2ccccc2)CC1)c1ccc(Cl)cc1 | 10 | 3% | -3.0% | 0.9 | 10% | 0.7
COc1ccc(C(=O)C2CCN(C(=S)NCCc3ccc(OC)c(OC)c3)CC2)cc1 | -11 | -30% | nt | -0.6 | 16% | 1.6
CSCCC(NC(=O)COc1cccc2ccccc12)C(=O)O (centres undefined) | 19 | 5% | -14% | -0.3 | 0% | 0.9
Cc1[nH]c2ccc(C(=O)OCC(=O)NC3(C#N)CCCCC3)cc2c1C | 0 | -8% | -4.8% | 0.5 | -8% | nt
CCOc1ccccc1NC(=O)c1cc(S(=O)(=O)NC2CCCC2)ccc1F | 17 | nt | -2.3% | 4.0 | nt | nt
O=C(C1CCC(C(=O)N2CCc3ccccc32)CC1)N1CCc2ccccc21 (centres undefined) | -5 | 5% | -5.7% | 0.7 | -10% | 0.2
NCc1ccc2[nH]c(=O)[nH]c2c1 | 14 | 8% | -4.0% | 0.1 | -1%[15.4 µM] | 0.3
Cc1noc(NS(=O)(=O)c2ccc(NC(=O)COc3ccc(C#N)cc3)cc2)c1C | 6 | 6% | -8.3% | 0.7 | 5%[15.4 µM] | nt
CC(C)NC(=O)COc1coc(CN2CCN(c3ccccc3)CC2)cc1=O | 20 | -5% | -1.9% | 0.6 | 5% | nt
O=C(NCc1ccco1)c1cccc(S(=O)(=O)N2CCCCC2)c1 | 0 | -4% | 0.0% | 0.3 | 9% | 1.3
Cc1cccn2c(=O)c(/C=C(\C#N)C(N)=O)c(Oc3ccccc3)nc12 | -22 | 4% | 4.0% | -0.9 | -23% | 0.6
CCOc1ccc(CN2CCN(C(=O)c3ccccc3)CC2)cc1 | -1 | 18% | 1.0% | 1.1 | -16% | 0.3
CC1CCN(c2nc(-c3cccnc3)nc3scc(-c4ccccc4)c23)CC1 | -13 | -6% | ? | -0.7 | ? | -1.0
CC(=O)C1=C(C)NC(SCC(N)=O)=C(C#N)C1c1sccc1C (centres undefined) | 82 | 0% | -0.2% | 0.0 | -34%[inhibitor] | 7.3
COc1ccc(NC(=O)C2CCN(S(=O)(=O)c3ccc(Cl)c(C(F)(F)F)c3)CC2)cn1 | 3 | nt | 14% | -0.1 | 7% | nt
CCn1cc(C(=O)N2CCN(c3ccccc3F)CC2)c(=O)c2cc(S(=O)(=O)N(C)C)ccc21 | 24 | nt | -3.1% | -0.6 | nt | nt
O=C(CSc1nc(-c2ccco2)cc(C(F)(F)F)n1)NCCc1ccccc1 | 8 | -4% | ? | 0.3 | -22% | 1.0
CCOc1cc(/C=C2\NC(=S)N(c3c(C)n(C)n(-c4ccccc4)c3=O)C2=O)ccc1O | 39 | -16% | -0.9% | 1.2 | -6% | ?
C[C@@H]1CCC[C@]2(O[C@@H](CCO)C[C@@H](O)[C@@H]2O)O1 | 14 | 8% | 2.4% | -0.8 | nt | nt
COc1ccc(S(=O)(=O)Nc2c(O)c3ccccc3oc2=O)cc1 | -4 | -2% | nt | 0.1 | ? | -2.3
N#Cc1ccc(OCC(=O)NCC2(N3CCCCC3)CCCCC2)cc1 | -28 | 3% | nt | 0.5 | -16%[15.4 µM] | -2.7
O=C(Nc1ccn(CCCNCc2ccccn2)c(=O)n1)OCc1ccccc1 | -2 | 2% | -2.5% | -0.1 | nt | nt
CCOc1cccc(NC(=O)C2CCCN(S(=O)(=O)c3ccc(-n4cnnn4)cc3)C2)c1 (centres undefined) | 1 | 13% | -0.5% | 0.6 | -3% | -1.9
CSCC[C@H](NC(=O)[C@@H]1Cc2ccccc2CN1)C(=O)Nc1ccc2c(c1)OCO2 | -9 | -1% | -2.1% | -0.1 | ? | -3.4
CC(C)(/C=N/O)/[N+]([O-])=C/c1ccccc1C(F)(F)F | 36 | 14% | -0.8% | 0.5 | 0% | ?
COc1ccc(CN(C)C(C)C(=O)Nc2ccc(S(=O)(=O)N3CCCCC3)cc2)cc1F (centres undefined) | -8 | -9% | -1.5% | -2.0 | 3% | nt
O=Cc1cc2ccccc2nc1SCc1ccc(Cl)c(Cl)c1 | 8 | 7% | 0.9% | -0.2 | 10% | 0.1
Cc1nnc(C)n1/N=C/c1c(O)ccc2ccccc12 | 17 | 1% | 3.8% | 1.3 | -1% | 4.6
COc1cc(C(=O)Nc2cc(-c3nc4cc(C)ccc4o3)ccc2C)cc(OC)c1OC | 4 | 5% | 30% | 1.1 | -34%[inhibitor] | 2.2
O=S(=O)(NCC1CCCO1)c1ccc2oc3ccc(S(=O)(=O)NCC4CCCO4)cc3c2c1 (centres undefined) | 3 | -2% | 0.9% | -0.6 | -12% | 1.1
COc1ccc(NC(=O)C(=O)NCCN2CCN(C(=O)c3cccc(Br)c3)CC2)cc1 | 17 | 5% | 0.7% | -0.1 | -10% | -0.7

Whole records, quoted from the list. Screens in order: TRPML1 blocker | gsp antag | ClpP mod | TRPML1 agonist | gsp agonist | Menin MLL FP FL
COc1ccc(S(=O)(=O)Nc2c(O)c3ccccc3oc2=O)cc1 across the screens: -4 | -2% | nt | 0.1 | ? | -2.3
CC(C)(/C=N/O)/[N+]([O-])=C/c1ccccc1C(F)(F)F across the screens: 36 | 14% | -0.8% | 0.5 | 0% | ?

Next part
SMILES | TRPML1 blocker | gsp antag | ClpP mod | TRPML1 agonist | gsp agonist | Menin MLL FP FL
C[C@H](CO)N1C[C@H](C)[C@@H](CN(C)S(=O)(=O)c2cn(C)cn2)Oc2ccc(NC(=O)Nc3ccc4c(c3)OCO4)cc2C1=O | 0 | 11% | 11% | 0.9 | -7% | nt
COc1ccc(OCCn2ccnc2C)cc1 | -5 | 9% | 3.2µM* | -0.6 | -8%[15.4 µM] | 0.2
COc1ccc(NC(=O)COC(=O)C2CC3C=CC2C3)cc1 (centres undefined) | 1 | 2% | -0.9% | 0.5 | -8% | -0.1
CC(=O)Nc1ccc(C(=O)OCC(=O)N(C)C2CCCCC2)cc1 | 17 | 11% | nt | 0.6 | -7%[15.4 µM] | 1.0
CCSc1ccccc1C(=O)N=C1NC(=O)CC2C(=O)NCCN12 (centres undefined) | -3 | -3% | -0.6% | -0.2 | ? | -0.3
CC1=NN(c2ccccc2)C(=O)/C1=C/c1ccc[nH]1 | 7 | 19% | -11% | 3.8 | 3% | -1.7
CC(=O)NN=C1CCC(c2ccccc2)CC1 (centres undefined) | 28 | 8% | 1.7% | 1.2 | -19% | 5.2
Cc1cccc(C(=O)Nc2nnc(S(=O)(=O)N3CCCc4ccccc43)s2)c1 | -3 | nt | -5.9% | -0.2 | nt | nt
COc1cc(NC(=O)[C@H]2CCCN2S(=O)(=O)c2cccc3cccnc23)cc(OC)c1OC | -4 | -4% | -1.8% | 0.4 | nt | nt
O=C1c2ccccc2C(=O)N1c1ccc(S(=O)(=O)N2CCN(c3ccccc3)CC2)cc1 | -12 | -2% | 1.0% | -0.9 | ? | -1.4
CCOC(=O)[C@H]1[C@H]2COc3ccc(C)cc3[C@@H]2N2C(=O)CN(CC3CCCO3)C(=O)[C@@]12C (some centres undefined) | 21 | 1% | 1.0% | 0.3 | 16% | nt
C/C=C\C=C/C(=O)Nc1cccc(C2=NOC3(C2)C[C@H](C(N)=O)N(C(=O)c2ccc(OC)cc2)C3)c1 (some centres undefined) | -8 | 4% | -0.5% | -0.6 | -3% | 10
CCC1CN(C(=O)N2CCC(C(=O)NCc3ccco3)CC2)c2ccccc2O1 (centres undefined) | -8&25 | 5% | 1.7%&1.3% | -1.0&2.6 | ? | nt
CCC(C(=O)NC1CCC(C)CC1)n1nc(C)c2sc3ccccc3c2c1=O (centres undefined) | 5 | nt | -22% | 0.4 | nt | nt
COC(=O)Nc1ccc(S(=O)(=O)N2CCC(C(=O)N3CCCC(C)C3)CC2)cc1 (centres undefined) | 5 | 5% | nt | 0.0 | -1% | 3.4
CCN1CCN(c2nc3c(c(=O)n(C)c(=O)n3C)n2Cc2cccc3ccccc23)CC1 | -6 | 0% | 1.2% | -0.5 | -15% | 1.8
O=C1CN(C(=O)CSc2ccc(-c3ccc(F)cc3)nn2)c2ccccc2N1 | 1 | 16% | nt | -0.2 | -32%[15.4 µM] | -0.8
COC(=O)c1scc(C)c1NC(=O)CC1NCCNC1=O (centres undefined) | 7 | 7% | 1.6% | 1.1 | 6% | 12
c1ccc(COc2ccc(-c3csnn3)cc2)cc1 | -8 | 5% | -0.4% | -0.3 | 13% | 5.0
Cc1cccc(N2CCN(C(=O)c3c(C)oc4ncnc(N5CCOCC5)c34)CC2)c1C | -5 | nt | 0.7% | 0.0 | nt | nt
